HPGD inh – inhibitors of human 15-hydroxyprostaglandin dehydrogenase (HPGD) | purified HPGD, NADH fluorescence kinetic, PGE2 substrate | 150,000 compounds, 4.3% hits | AID 894 | Potency, µM, for inactives: at the top dose activity change, negative = inhibition, usual class: inhibitors | P15428; active = well fitted inhibition curve with a large enough effect (not every such curve was filed as active); inconclusive = small, poorly fitted or top-dose-only effect, or another doubt; inactive = no such curve, though single readings can be large or run the other way;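 note: top concentration of the series not given in the record; plate controls included wells without enzyme; inactives centre near -10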
Target sequence (P15428 whole entry, looked up): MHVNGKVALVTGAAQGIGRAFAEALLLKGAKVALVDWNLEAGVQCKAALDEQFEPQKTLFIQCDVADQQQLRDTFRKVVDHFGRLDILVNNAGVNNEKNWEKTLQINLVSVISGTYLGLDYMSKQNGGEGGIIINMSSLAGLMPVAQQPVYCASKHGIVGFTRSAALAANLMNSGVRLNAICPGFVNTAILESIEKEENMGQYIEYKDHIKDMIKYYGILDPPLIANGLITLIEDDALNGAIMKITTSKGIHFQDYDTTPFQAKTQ
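NADH formation kinetics: reaction with 30 uM PGE2 and 1 mM NAD+ (final), 20 nM enzyme, Tris-HCl pH 8 with Tween 20, after 15 min compound preincubation at room temperature. Fluorescence change, last versus first of five reads.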
* marks the source's active call; other numbers are inactive results; u = inconclusive; [ ] = dose if it differs, or a comment. % is set by controls: 0 for no effect and ±100 for the full control effect; potency is the fitted concentration of half-maximal effect.

CCCCC(c1nnnn1CCOC)N1CCN(CC)CC1 (configuration not stated)
  HPGD inh = -8%
COc1ccccc1N1CCN(C[C@@H]2CN3C(=O)N(C)c4ccccc4C3=N2)CC1
  HPGD inh = -14%
COc1ccc(OC)c(-n2c(-c3cc(-c4ccccc4)n[nH]3)n[nH]c2=S)c1
  HPGD inh = u
O=c1cc(-c2ccccc2)[nH]c2cc(F)ccc12
  HPGD inh = u
Nc1nnc(SCC(=O)OCc2ccc(Cl)c(Cl)c2)s1
  HPGD inh = -18%
COCCn1c(SCC(=O)Nc2cccc(OC)c2)nnc1-c1ccccc1
  HPGD inh = -4%
O=C(CNS(=O)(=O)c1cccc(Cl)c1)Nc1ccc(-c2nc3ccccc3s2)cc1
  HPGD inh = u
CCCOc1ccc2oc(=O)c3c(c2c1)CCCN3C(=O)CN1CCN(C(=O)c2ccco2)CC1
  HPGD inh = -10%
Cc1ccccc1OCCNC(=O)CSc1ccc(C(F)(F)F)cc1[N+](=O)[O-]
  HPGD inh = 25µM*
O=C(O)CSc1nnc(Cc2ccccc2)n1-c1ccccc1
  HPGD inh = -6%
Cc1cc2cc(C#N)c(NCCNC(=S)NCCCN3CCOCC3)nc2cc1C
  HPGD inh = u
COc1c2c(nc3occc13)C(CC=C(C)C)(OC)C(O)CC2 (configuration not stated)
  HPGD inh = 7%
Cc1nn(C(=O)c2ccco2)c(C)c1CN1C(=O)c2ccccc2C1=O
  HPGD inh = -14%
Cc1ccc(C(=O)CCNc2ccc(F)c(Cl)c2)o1
  HPGD inh = -8%
CCOc1cc2[nH]c(=S)n(Cc3ccc(C(=O)NCC(OC)OC)cc3)c(=O)c2cc1OCC
  HPGD inh = -16%

CN(C(=O)/C(N=Nc1cccc(C(F)(F)F)c1)=C(\O)C(F)(F)F)c1ccccc1
  HPGD inh = -12%
COc1ccc2cc(CCNC(=O)C(C)C)c(=O)[nH]c2c1
  HPGD inh = -19%
Cc1ccc(C)c(OCCCC(=O)O)c1
  HPGD inh = -10%
CC(C)N(C(=O)C1CC(=O)OC12CCCCC2)C(C)C (configuration not stated)
  HPGD inh = 1%
CC(=O)N1CCN(C(=S)c2cccc([N+](=O)[O-])c2)CC1
  HPGD inh = -18%
CCC(C)NC(=O)CSc1ncccc1C(=O)O (configuration not stated)
  HPGD inh = -11%
COCc1nnc(NC(=O)CC(C)c2ccccc2)s1 (configuration not stated)
  HPGD inh = -2%
Cc1nc2cc3nc(C(F)(F)F)[nH]c3cc2[nH]1
  HPGD inh = 60%[activator]
Cn1cnc(C(F)(F)F)c1-c1ccc([N+](=O)[O-])cc1
  HPGD inh = -1%
Cc1ccnc(NC(=O)/C=C/c2cccs2)c1
  HPGD inh = -10%
Cc1ccc(C(=O)c2cnc3ccccc3c2-c2ccccc2)cc1
  HPGD inh = -15%
Cc1cccc2cc(CN(CC3CCCO3)C(=S)Nc3ccccc3)c(=O)[nH]c12 (configuration not stated)
  HPGD inh = -11%
COC(=O)c1cc(C#N)c(Oc2cccc(C)c2C)nc1C
  HPGD inh = -11%
COc1cc(OC)c(OC)cc1CN1CCN(c2ccccc2OC)CC1
  HPGD inh = -3%
COc1ccc(S(=O)(=O)NC(CC(=O)O)c2ccco2)cc1 (configuration not stated)
  HPGD inh = 0%

CCCCOCCCNC(=O)CCCOc1ccccc1
  HPGD inh = -8%
C[C@H]1[C@H]2CC[C@H]3[C@@H]4CC=C5C[C@@H](N(C)C)CC[C@]5(C)[C@H]4CC[C@]23CN1C
  HPGD inh = -5%
C=CCSc1nnc(-c2nnc(SCC=C)n2-c2ccccc2)n1-c1ccccc1
  HPGD inh = -2%
Cc1ccccc1N(CC(=O)O)S(C)(=O)=O
  HPGD inh = -10%
Cc1cc(NC(=O)C2C3C(=O)N(CCC(C)C)C(C(=O)NCc4ccccc4)C34C=CC2(C)O4)no1 (configuration not stated)
  HPGD inh = -6%
Cc1cc(C(=O)N/N=C2\CC(=O)CC(C)(C)C2)c2ccccc2n1
  HPGD inh = -1%
O=C(N/N=C/c1ccc([N+](=O)[O-])o1)c1ccc(O)cc1
  HPGD inh = -30%
Cc1c(Nc2cc(N3CCCC(C)C3)c3nonc3c2[N+](=O)[O-])c(=O)n(-c2ccccc2)n1C (configuration not stated)
  HPGD inh = u
Cc1ccccc1N(C(=O)Cc1c[nH]c2ccccc12)C(C(=O)NC1CCCCC1)c1ccco1 (configuration not stated)
  HPGD inh = -3%
O=C(Cc1n[nH]c(=O)c2ccccc12)Nc1ccc(-c2nnc3n2CCCCC3)cc1
  HPGD inh = 10µM*
COc1ccc(CC(=O)N2CCN(c3ccc(C4=NNC(=O)CC4C)cc3)CC2)cc1 (configuration not stated)
  HPGD inh = u
COc1cc(/C=N/NC(=Nc2ccc(C)cc2)c2nc3ccccc3s2)ccc1O
  HPGD inh = -15%
Cc1c(Br)c([N+](=O)[O-])nn1C(C)C(=O)N1CCCc2ccccc21 (configuration not stated)
  HPGD inh = -4%
c1ccc2c(c1)[nH]c1c(N3CCC4(CC3)OCCO4)ncnc12
  HPGD inh = -28%
CCOC(=O)N1CCN(C(=O)CSCc2nc(-c3ccccc3F)oc2C)CC1
  HPGD inh = -19%

Nc1ccc(-c2nc3ccc(C(=O)O)cc3s2)cc1
  HPGD inh = u
CC1CCc2c(c3ccccc3[nH]c2=O)O1 (configuration not stated)
  HPGD inh = u
O=C(NC(=S)Nc1ccc(N2CCCC2)cc1)c1ccccc1[N+](=O)[O-]
  HPGD inh = -11%
CNC(=O)C1CC(=O)N(Cc2ccc3c(c2)OCO3)C(=Nc2ccc(F)cc2)S1 (configuration not stated)
  HPGD inh = -15%
Cc1ccc(CNC(=O)COC(=O)Cc2ccc(-c3ccccc3)cc2)cc1
  HPGD inh = -9%
Brc1ccc(-c2nc3ncccn3c2NC2CCCCC2)o1
  HPGD inh = -7%
CCN(CC)Cc1cc(NC2=NS(=O)(=O)c3ccccc32)ccc1OC(=O)C(C)C
  HPGD inh = 5%
CCC(SC1=NCCS1)C(=O)Nc1ccc(S(N)(=O)=O)cc1 (configuration not stated)
  HPGD inh = -6%
CCNc1nc(Cl)nc(NCCOc2ccc(C)cc2)n1
  HPGD inh = -3%
CC(=O)Nc1c(C(=O)C2CC2)oc2ccccc12
  HPGD inh = -10%
COc1ccc2c(c1OC)C(=O)N(c1nccs1)C2
  HPGD inh = u
O=[N+]([O-])c1cc(/C=N/OCc2c(Cl)cccc2Cl)ccc1N1CCOCC1
  HPGD inh = -14%
COC(=O)c1c(NC(=O)CSc2nnc(-c3ccco3)n2Cc2ccccc2)sc(C)c1C
  HPGD inh = -5%
CCc1ccc(N2CC(C(=O)Nc3ccccc3F)CC2=O)cc1 (configuration not stated)
  HPGD inh = -9%
Cc1cc2cc3c(cc2nc1SCC(=O)Nc1nc(C)c(C)s1)OCO3
  HPGD inh = -20%

CCC1/C(=N\O)CC(c2ccco2)NC1c1ccco1 (configuration not stated)
  HPGD inh = -1%
Cc1ccc(-n2c(SCC(=O)NCC3CCCO3)nc3n[nH]c(C)c3c2=N)cc1Cl (configuration not stated)
  HPGD inh = -21%
COc1ccc2c(CC(=O)OCC(=O)Nc3ccc4c(c3)OCO4)coc2c1
  HPGD inh = -7%
O=[N+]([O-])c1cccc(C(=S)N2CCN(c3ccccc3)CC2)c1
  HPGD inh = 22µM*
CCn1nc(CC(=O)Nc2nnc(CC(=O)N3CCCCC3)s2)c2ccccc2c1=O
  HPGD inh = 22µM*
O=C(Nc1cccc2ccccc12)N1CCN(Cc2ccccc2)CC1
  HPGD inh = -10%
Cc1nc(C)c(C(=O)NNS(=O)(=O)c2ccccc2)s1
  HPGD inh = -7%
C=CCSc1ncccc1C(=O)NCc1ccccc1
  HPGD inh = -14%
CC(C)(O)c1cc(=O)sc2nc3ccccc3n12
  HPGD inh = -11%
COC(=O)[C@@]1(Cc2ccc(F)cc2)[C@H]2c3cc(C(=O)N4CCCC4)n(Cc4cc(F)cc5c4OCOC5)c3C[C@H]2CN1C(=O)c1ccccc1
  HPGD inh = -17%
COc1ccc(-c2ccc(NCCC3=CCCCC3)nn2)cc1OC
  HPGD inh = -16%
Cc1c(Cl)ccc2c1NC(=O)[C@]21N[C@@H](CCC(N)=O)[C@H]2C(=O)N(c3ccc(F)cc3)C(=O)[C@H]21
  HPGD inh = -6%
COC(=O)N1CCC[C@@]2(CCN(C(c3ccccc3)c3ccccc3)C2)C1
  HPGD inh = -11%
Cc1ccsc1/C=N/NC(=O)C1CC(=O)N(c2ccccc2)C1 (configuration not stated)
  HPGD inh = -9%
CCOC(=O)c1snc(C(=O)NC2CCCCC2)c1N
  HPGD inh = u

Cc1ccc(C(=O)N2CCN(C(=O)CN3CCOCC3)C2)cc1
  HPGD inh = -7%
O=C(Cc1ccccc1)Nn1c(-c2ccccc2)nc2ccccc2c1=O
  HPGD inh = -2%
CCN(Cc1ccncc1)C(=S)Nc1c(C)cccc1C
  HPGD inh = -3%
CC(=O)c1sc(NC(=O)c2cc(-c3ccccc3)nn2-c2ccccc2)nc1C
  HPGD inh = -13%
CNc1nc(Sc2ccccc2)cc(C(F)(F)F)n1
  HPGD inh = 35µM*
N#CC1=C2SCC(O)(c3ccccc3)N2C(=O)CC1c1ccccc1F (configuration not stated)
  HPGD inh = -15%
Cc1cc(CNC(=O)[C@H](C)[C@H]2C[C@]2(C)[C@H](NC(=O)OCc2ccccc2)c2ccccc2)nn1C
  HPGD inh = -9%
NS(=O)(=O)c1ccc(N/C=C/C(=O)c2ccc(Br)cc2)cc1
  HPGD inh = -25%
CCc1ccc(NC(=O)CSC2=C(C#N)C(c3ccco3)C3=C(CCCC3=O)N2)cc1 (configuration not stated)
  HPGD inh = -8%
COc1ccccc1N1CCN(C(=O)C2CCN(S(=O)(=O)c3ccc(F)cc3)CC2)CC1
  HPGD inh = -8%
CC(C)(C)n1nc2c(c1NC(=O)c1ccccc1F)CS(=O)C2 (configuration not stated)
  HPGD inh = -17%
COc1ccc(NC2CS(=O)(=O)CC2NCc2ccccc2)cc1 (configuration not stated)
  HPGD inh = -1%
CC1(C)NC(=O)N(CC(O)CN2CCCC2)C1=O (configuration not stated)
  HPGD inh = -12%
CCC(C)(C)n1nnnc1C(c1cc2ccc(OC)cc2[nH]c1=O)N1CCc2ccccc21 (configuration not stated)
  HPGD inh = -17%
Cc1nn(Cc2ccccc2)c(C)c1NC(=O)CCCn1nc([N+](=O)[O-])c(Cl)c1C
  HPGD inh = -16%

Cn1c(Cc2cccs2)nnc1SCC(=O)N1CCCc2ccccc21
  HPGD inh = 6%
CCOC(=O)CSc1nc(C)c(C(C)=O)cc1C#N
  HPGD inh = 22µM*
Cc1cccc(Cn2c(N(C)Cc3ccccc3)nc3c2c(=O)[nH]c(=O)n3C)c1
  HPGD inh = -8%
O=C1c2ccccc2N2C(=O)c3ccccc3C2N1O (configuration not stated)
  HPGD inh = -29%
CC1(C)CC(=O)C(/C=N/n2c(C(F)(F)F)nc3ccccc3c2=O)=C(O)C1
  HPGD inh = -26%
COc1ccc(COC(=O)N/N=C(\C)CC(=O)Nc2ccc(Cl)cc2)cc1
  HPGD inh = -5%
Nc1ccc2nn(-c3cccc4ccccc34)nc2c1
  HPGD inh = u
Cc1ccc(S(=O)(=O)N2CCC(=O)N(C(COCc3ccc(C(F)(F)F)cc3)C(C)C)CC2)cc1 (configuration not stated)
  HPGD inh = -8%
CC(NC(=O)CSc1nc2c(cc1C#N)CN(C)CC2)c1ccccc1 (configuration not stated)
  HPGD inh = -18%
Nc1ccc([N+](=O)[O-])c(N)c1
  HPGD inh = -11%
CC(=O)c1sc(NC(=O)c2ccco2)nc1-c1ccccc1
  HPGD inh = 11µM*
O=C(CSc1ncnc2c1oc1ccccc12)NCc1ccc(F)cc1
  HPGD inh = -21%
COc1ccc(C)cc1NC(=O)CN1CCN(C/C=C/c2ccccc2)CC1
  HPGD inh = -10%
FC(F)(F)c1cnc(-n2cc[nH]c2=S)c(Cl)c1
  HPGD inh = 1%
CC(=O)N1c2ccccc2C(C)(C)C2CCC(C)CC21 (configuration not stated)
  HPGD inh = -7%

An excerpt from above in order of count of non-hydrogen atoms, ascending:
Nc1ccc([N+](=O)[O-])c(N)c1
  HPGD inh = -11%
O=C1c2ccccc2N2C(=O)c3ccccc3C2N1O (configuration not stated)
  HPGD inh = -29%
CC(=O)c1sc(NC(=O)c2ccco2)nc1-c1ccccc1
  HPGD inh = 11µM*
O=C(CSc1ncnc2c1oc1ccccc12)NCc1ccc(F)cc1
  HPGD inh = -21%
COc1ccc(COC(=O)N/N=C(\C)CC(=O)Nc2ccc(Cl)cc2)cc1
  HPGD inh = -5%
Cc1ccc(S(=O)(=O)N2CCC(=O)N(C(COCc3ccc(C(F)(F)F)cc3)C(C)C)CC2)cc1 (configuration not stated)
  HPGD inh = -8%

Further compounds.
Cc1cc(Cl)c(S(=O)(=O)N2CCN(c3ccc(F)cc3)CC2)cc1OCC(N)=O
  HPGD inh = -5%
Cc1ccc(CNC(=O)COC(=O)c2cnccn2)cc1
  HPGD inh = -12%
Cn1cnc(S(=O)(=O)NCc2ccccc2)c1
  HPGD inh = -18%
COc1ccccc1CCn1c(N)c(C#N)c2nc3ccccc3nc21
  HPGD inh = u
CC(C)[C@H](NC(=O)OC(C)(C)C)c1nnc(SCC(=O)Nc2ccc(Br)cc2)o1
  HPGD inh = -23%
NS(=O)(=O)c1ccc(NN=C2CCCCC2)c([N+](=O)[O-])c1
  HPGD inh = -14%
CCOc1cc(N2CCOCC2)c(OCC)cc1NC(=O)COC(=O)c1ccccc1C
  HPGD inh = 0%
Cc1ncc(CO)c(CO)c1O
  HPGD inh = u
CC(C)(C)C(=O)Nc1ccc(C(=O)Nc2cccnc2)cc1
  HPGD inh = -8%
CC(NC(=O)COC(=O)c1ccc([N+](=O)[O-])s1)c1ccccc1 (configuration not stated)
  HPGD inh = -2%
CCC(OC(=O)c1cccs1)C(=O)NCc1ccc2c(c1)OCO2 (configuration not stated)
  HPGD inh = -17%
Cc1ccc(CN=Cc2[nH]c3ccc(Br)c(Cl)c3c2O)cc1
  HPGD inh = 28µM*
O=S(=O)(NCCc1ccccn1)c1cccs1
  HPGD inh = -15%

Not all compounds are listed. The share of hits here may be higher or lower than overall.
